# High-throughput results from PubChem BioAssay.
# fixLJ activator – B. multivorans fixK reporter activation; B. multivorans fixK-promoter GFP reporter, 18 h; stronger effect = higher value; z-score (no concentration beside the values); actives 0.3% (n = 29,000);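 active = replicate mean overnight rise in green fluorescent reporter signal, 3 or more SD over negative controls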;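 note: score is relative to vehicle wells of the plate; 300 nL library stock went into each well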
# * marks the source's active call; other numbers are inactive results. This is a subset; rates above refer to the full screens.
structure | fixLJ activator
COc1ccc(CCNC(=O)Cc2c(C)c3c(cc(C)c4c(C)c(C)oc43)oc2=O)cc1 | -2.7
COc1ccc(C(=O)Nc2ccc(NC(=O)c3cccs3)cc2)cc1OC | 1.4
CCOCCC(=O)N1CC[C@]2(OC)CCC(Oc3ccccn3)CC12 (stereo partly drawn) | -1.1
COC(=O)c1c(NC(=O)CCCOc2ccc(C(C)(C)C)cc2)sc2c1CCC(C)C2 (stereo not drawn) | -2.5
O=C(Cn1ncc2c3ccccc3n(Cc3ccccc3)c2c1=O)NCCc1ccc(Cl)cc1 | 0.29
COC(=O)COc1ccc(-c2nnc(Nc3ccc(O)cc3)c3ccccc23)cc1 | -1.8
COc1cccc(NC(=O)c2oc3ccccc3c2NC(=O)C2CCCCC2)c1 | -1.6
CC(C)Cc1cc(C(=O)NCc2ccc(Cl)cc2)no1 | -0.61
CCOC(=O)c1c(Nc2cccc(C)c2)nnc(-c2ccccc2)c1-c1ccccc1 | 0.67
Nc1nc(N2CCN(Cc3cncn3C3CCCCC3)CC2)cc(=O)[nH]1 | -1.6
Cc1ccccc1CNC(=O)Cn1c(C)c2cnn(-c3ccccc3)c(=O)c2c1C | -0.51
O=C(CN1CCN(Cc2ccc(F)cc2)C1=O)NCc1ccccc1 | -1.7
COc1ccccc1CNC(=O)Cn1c(=O)oc2cc(S(=O)(=O)N3CCC(C)CC3)ccc21 | 0.68
Cc1cccc2nc(C(=O)NCCc3n[nH]c(=O)[nH]3)c(F)n12 | 0.57
COCC1CCCN(S(=O)(=O)N2CCN(c3ccccc3)C(=O)C2)C1 (stereo not drawn) | -0.81
CCCCOc1ccc(C2=NC(c3ccncc3)=Nc3ccc(OCC)cc3N2)cc1 | -0.78
CCc1ccccc1NS(=O)(=O)c1ccc2c(c1)CC(=O)N2 | 0.63
COc1cccc(OC)c1C(=O)NC1COCC1Cc1ccncc1 (stereo not drawn) | -0.77
O=C(NC1CCCN(C(=O)c2ccco2)C1)c1cccc(-c2cn[nH]c2)c1 (stereo not drawn) | 0.35
COc1ccccc1-c1nnc(C2CCN(S(=O)(=O)c3ccccc3)CC2)o1 | -1.3

# Next part; the last 2 above are carried over.
structure | fixLJ activator
O=C(NC1CCCN(C(=O)c2ccco2)C1)c1cccc(-c2cn[nH]c2)c1 (stereo not drawn) | 0.35
COc1ccccc1-c1nnc(C2CCN(S(=O)(=O)c3ccccc3)CC2)o1 | -1.3
COC(=O)c1cc2occc2n1Cc1nc(-c2ccccc2F)oc1C | -0.25
CCCn1c(=NC(=O)c2c(-c3c(F)cccc3Cl)noc2C)c(C(=O)OCC)cc2c(=O)n3ccccc3nc21 | -0.62
COc1ccccc1-n1cc(CNC(=O)c2ccnc(C(C)C)n2)cn1 | 0
COc1ccccc1NC(=O)N1c2ccccc2Sc2ccccc21 | 0.16
CCCCCn1c(CCCNC(=O)c2ccc(Cl)cc2)nc2ccccc21 | -0.23
COCCn1c(CCC(=O)Nc2ccc(C)c(Cl)c2)nc2cccnc21 | -1.9
COc1ccccc1-c1noc(CSc2nc3ccc(C)cc3[nH]2)n1 | -1.6
CCOc1cc(C(=O)Nc2ccc3nc(N4CCN(C)CC4)cc(C)c3c2)cc(OCC)c1OCC | 0.33
CCCCc1c(C)nc2c(-c3ccc(OC)cc3)c(C)[nH]n2c1=O | -1.2
CCc1ccc(S(=O)(=O)c2nnn3c2nc(NCCC(C)C)c2cc(Cl)ccc23)cc1 | -1.4
COc1ccc(CN2C(=O)C(NC(=O)c3ccc(C)cc3)(C(F)(F)F)N=C2c2ccccc2)cc1 (stereo not drawn) | -1.8
CCn1c(CNC(=O)c2ccc(OC)cc2)nnc1SCC(=O)Nc1ccc(C)cc1 | 0.26
Cc1cc(C)cc(-n2c(C)nc3cc(C(=O)O)ccc32)c1 | -2.6
CC(NC(=O)c1ccc(CSc2nc3ccncc3n2Cc2ccc(F)cc2)cc1)c1ccccc1 (stereo not drawn) | -4.4
Nc1ncc(C=CC(=O)NCc2ccc3[nH]c(=O)[nH]c3c2)cn1 | -2.2
O=C(Cn1ccc(C2CCCNC2)n1)NCC1CCOCC1 (stereo not drawn) | 0.55
CCCCSc1nc2sc3c(c2c(=O)n1-c1ccccc1C)CC(C)(C)OC3 | -0.57
CCCSc1ncc(Cl)c(C(=O)Nc2ccc(OC)cc2OC)n1 | -2
CCC(C(=O)NCCCN(CC)CC)n1ncn2c(cc3occc32)c1=O (stereo not drawn) | -1.1
Cc1ccc(CNC(=O)c2cc3sccc3n2Cc2ccc(F)cc2)cc1 | -0.38
CC(=O)NCC1CCN(C(=O)c2cccc(CCC(C)(C)O)c2)CC1 | -3.6
CN(C)S(=O)(=O)CC1COCC1NC(=O)c1ccc2ccccc2n1 (stereo not drawn) | -0.98
CCOCC(=O)N1CCC(c2cc(-c3ccccc3Cl)n[nH]2)CC1 | -0.83
CC(C)(C)c1ccc(/C=C/C(=O)Nc2ccc(S(N)(=O)=O)cc2)cc1 | -4
COc1ccc(NC(=O)Cn2nnc(C(=O)NCCc3ccccc3)c2N)cc1 | -1.3
CCCCc1cn(CC2CCN(C(=O)c3ccco3)CC2)nn1 | 0.35
CCN(CC)S(=O)(=O)c1ccc2c(c1)N(CC(=O)Nc1ccc(OC)cc1)C(=O)CS2 | -1.3
CCc1ccc(NC(=O)CC2C(=O)NCCN2C(=O)c2ccc(F)cc2)cc1 (stereo not drawn) | 0.18
Cc1ccccc1-c1nc(CS(=O)(=O)CC(=O)NCCCN2CCN(C)CC2)c(C)o1 | -0.41
CC(=O)N1CCc2c(sc3c2c(=O)n(CCc2ccccc2)c(=O)n3Cc2ccc(F)cc2)C1 | 0.57
COc1cccc(N2CCN(C(=O)c3ccc4c(Cl)c5c(nc4c3)CCCC5)CC2)c1 | 0.31
COc1ccc(CN(C(=O)c2ccccc2F)C2CCS(=O)(=O)C2)cc1 (stereo not drawn) | -2.3
COC(=O)c1ccc(NC(=O)CCS(=O)(=O)c2ccc(Br)s2)cc1 | -0.36
COc1ccc(-n2c(=O)c3sc4ccccc4c3n(Cc3ccccc3C)c2=O)cc1OC | 0.15
CCn1cc(C(=O)OCC(=O)Nc2ccc(C)c(Cl)c2)c(=O)c2ccc(C)nc21 | -0.36
Cc1cc(CC2CN(Cc3csc(C45CC6CC(CC(C6)C4)C5)n3)CC2O)on1 (stereo not drawn) | -3
Cc1ccc(NC(=O)[C@H]2O[C@@H]3OC(C)(C)O[C@@H]3[C@H]3OC(C)(C)O[C@H]32)cc1F | -1.9
Cc1nc(C(C)C)sc1C(=O)NC1COCCC1Oc1cccc(F)c1 (stereo not drawn) | -0.37
CN(CCCN1CCCCCC1)C(=O)Nc1ccnn1Cc1ccccc1 | -0.66
Cc1ccc(C2(O)CCN(Cc3nccn3C(C)C)CC2)nc1 | -1.3

# Next section; it opens with the 2 that closed the last part.
structure | fixLJ activator
CN(CCCN1CCCCCC1)C(=O)Nc1ccnn1Cc1ccccc1 | -0.66
Cc1ccc(C2(O)CCN(Cc3nccn3C(C)C)CC2)nc1 | -1.3
Cc1ccccc1N1CCN(C(=O)CCC(=O)Nc2nncs2)CC1 | 0.58
COc1ccc(NC(=O)c2ccco2)cc1NC(=O)COc1ccc(Cl)c(C)c1 | -1.6
O=C(NCc1cccc(Cl)c1)c1ccc2c(Cl)c3c(nc2c1)CCCC3 | 0.43
Cc1nn(C)c(C)c1CCC(=O)NCCCn1cc(Cl)cn1 | -0.67
CNS(=O)(=O)c1cc(-c2nnc(Nc3cc(C)ccc3C)c3ccccc23)ccc1C | -0.49
COc1ccc(-c2cc(C(F)(F)F)nc(SCC(=O)NCC(C)C)n2)cc1OC | 0.61
CC(=O)c1ccc(NC(=O)Cn2c(=O)n(Cc3ccco3)c(=O)c3sc4ccccc4c32)cc1 | -0.47
CC#C[C@]1(O)CC[C@H]2[C@@H]3CCC4=CC(=O)CCC4=C3[C@@H](c3ccc(N(C)C)cc3)C[C@@]21C | -1
CCCCNC(=O)CSc1nc2nc(C)c(Cc3c(F)cccc3Cl)c(C)n2n1 | -0.07
Cc1ccc(Nc2nc3ccc(C)cc3nc2-n2nc(C)cc2C)c(C)c1 | 0.83
CC(C)n1c(=N)c(C(=O)NCc2ccccc2)cc2c(=O)n3ccccc3nc21 | -3.1
Cc1ccc(NC(=O)c2c(NC(=O)c3ccc(F)cc3)sc3c2CCCC3)cc1C | -0.06
COc1ccc(OC)c(Nc2nc3ccccc3nc2-n2nc(C)cc2C)c1 | -0.33
Cc1ccc(-c2cc(C(F)(F)F)c(C#N)c(SCC(=O)Nc3ccccc3F)n2)cc1 | -3.1
CCCCN(CC)CCNC(=O)C1CCCN(S(=O)(=O)c2cccc3nsnc23)C1 (stereo not drawn) | 1.1
CCc1cc(N2CCc3nocc3C2)nc(N2CCCCC2)n1 | 0.26
Cc1nc(CCn2ccnc2-c2cnn3cccnc23)nc2c1CCCC2 | -0.44
COc1ccc(-c2ccccc2)cc1N1C(=O)C2CC1CN2c1cccc(C#N)n1 (stereo not drawn) | -1.6
CCOC(=O)c1c(NC(=O)c2ccc(S(=O)(=O)N(CC)CC)cc2)sc2c1CCCCC2 | 0.26
CCN(CC1CCOCC1)C(=O)c1cc(COc2ccccc2F)[nH]n1 | -0.73
COc1ccccc1C(=O)Nc1ccc2oc(-c3cccc4c(Br)cccc34)nc2c1 | -0.51
Cc1sc2ncn(CC(=O)N3CCN(c4cccc(Cl)c4)CC3)c(=O)c2c1S(=O)(=O)N1CCN(c2ncccn2)CC1 | 0.22
O=C(CC(c1ccccc1)c1cc(Br)ccc1O)NCC1(c2ccccc2)CCCC1 (stereo not drawn) | -0.02
Cc1ccc(-c2cc(NC(=O)C(C)Oc3ccccc3F)on2)cc1 (stereo not drawn) | -1.4
Cc1ccc(Nc2c(-c3ccc(C)cc3)nc3ccc(C)cn23)cc1 | 0.42
CCOc1cc(C(=O)Nc2ccc(-c3nc4cc(Cl)ccc4o3)cc2)cc(OCC)c1OCC | -0.17
Cc1cc(C)c(-c2n[nH]c3c2C(c2ccccc2F)N(Cc2ccco2)C3=O)c(O)c1 (stereo not drawn) | 2.5
O=C(Nc1cccnc1Cl)c1cc(-c2cccc(Cl)c2)on1 | -0.72
COc1ccc2cc(C3CN(c4ncccc4C(=O)O)CCO3)ccc2c1 (stereo not drawn) | 0.34
Cc1ccc(C)c(Cn2c(=O)n(Cc3ccc(C(=O)NC4CCN(Cc5ccccc5)CC4)cc3)c(=O)c3ccccc32)c1 | -1
CC(C)c1nnc(CN2CCC(c3nnc4n3CCCCC4)CC2)o1 | -1.4
O=C(Cc1cn2ccsc2n1)NC1CCCCCCC1O (stereo not drawn) | 2.1
COc1ccccc1NC(=O)Cn1c(=O)n(CCc2ccccc2)c(=O)c2c3c(sc21)CN(C(C)=O)CC3 | -2.4
COc1ccc(NC(=O)c2ccco2)cc1NC(=O)c1ccccc1[N+](=O)[O-] | -3.5
Cc1ccc(S(=O)(=O)N(Cc2nc(-c3cccc(C)c3)no2)C2CCCCC2)cc1 | -0.99
CCN(C(=O)c1nn(-c2ccc(C)cc2)c(=O)c2c1c1ccccc1n2C)c1ccc(F)cc1 | -0.11
CCOc1ccc(NC(=O)CCc2c(C)nc3c(-c4ccccc4)c(C)nn3c2C)cc1 | 0.18
Cc1ccc(-c2nc3cc(NC(=O)c4cc5ccccc5o4)ccc3o2)cc1Cl | -0.85
CCc1ccc(S(=O)(=O)c2nnn3c2nc(NCc2ccccc2OC)c2cc(Cl)ccc23)cc1 | 1
Cc1ccc2nc(COCC(=O)NC(C)c3nc(CC(C)C)no3)[nH]c2c1 (stereo not drawn) | -0.98
CCOc1ccnc(N2CCC(O)[C@]3(CCCN(C(=O)c4cnc(C)[nH]4)C3)C2)n1 (stereo partly drawn) | -0.71
COc1cccc(CCC(=O)N2CCCC2c2nc(-c3ccccn3)no2)c1 (stereo not drawn) | -0.6
CCOc1ccc(N(CC(=O)Nc2ccccc2CC)S(=O)(=O)c2c(C)[nH]c(=O)[nH]c2=O)cc1 | -1
CCOc1ccc(-c2cc3c(=O)n(Cc4nc(-c5ccc(OCC)c(OC)c5)oc4C)ccn3n2)cc1Cl | 0.67
Cc1ccn2c(Nc3ccc4c(c3)OCCO4)c(-c3ccc(C)s3)nc2c1 | 0.86
CCOc1ccc(NC(=O)CSc2nnc(CNC(=O)C34CC5CC(CC(C5)C3)C4)n2CC)cc1 | -0.39
CC(=O)N1CCc2cc(Br)cc(S(=O)(=O)N3CCC(C(=O)Nc4ccc(C(C)C)cc4)CC3)c21 | 2.4
Cc1ccc(-c2cc(NC(=O)COc3ccc(Cl)c(C)c3)on2)cc1 | -1.8
COc1ccc2c(c1)CCOC21CCN(C(=O)c2ccncc2F)CC1 | 0.27
COc1ccc(-c2ccc(CCC(=O)O)n2-c2ccccc2C(F)(F)F)cc1 | -0.57

# (list continues)
structure | fixLJ activator
COc1ccc(/C=C/C(=O)Nc2cccc(F)c2)cc1 | -1.4
O=C(O)CCC1(CCC(=O)NCc2cccc(F)c2)CCC(=O)N1 (stereo not drawn) | -1.6
Cc1ccc(N(CC(=O)Nc2ccc(OC(F)(F)F)cc2)S(=O)(=O)c2c(C)noc2C)cc1 | 0.09
Cc1ncsc1C(=O)NCc1cc2n(n1)CCCN(C(=O)N(C)C)C2 | -0.64
C[C@H]1CC2C([C@@H](O)C[C@@]3(C)C2CC[C@]3(O)C(=O)COC(=O)CCC(=O)O)[C@@]2(C)C=CC(=O)C=C12 (stereo partly drawn) | -1.7
COc1cccc(CNC(=O)c2ccc(CSc3nc4ccncc4n3Cc3cccc(C)c3)cc2)c1 | -3.4
CCOc1ccccc1NC(=O)c1cn(C2CCCCC2)c(=O)c2c1c1ccccc1n2C | -0.54
CCc1ccc2c(c1)c(=O)c(C(=O)c1ccccc1)cn2CC(=O)Nc1ccc(C)c(Cl)c1 | 0.25
Cc1cc(NC(=O)CCc2nc3cccnc3n2Cc2cccs2)ccc1Br | 0.05
O=C(NCCc1nc2ccccc2n1CCCOc1ccc(Cl)cc1)C1CCCCC1 | 0.12
Cc1cc(CN(C)C(=O)NCCc2noc(C3CCCC3)n2)on1 | -0.56
